Source: PubChem (National Center for Advancing Translational Sciences (NCATS))
RE007 growth inh – less growth of the S. pombe RE007 Vpr strain; S. pombe RE007 Vpr strain, BacTiter-Glo ATP luminescence, 24 h; control for the full effect not named in the record; Potency, µM (highest dose often 92.2 µM), for inactives: at the highest dose activity change, negative = less growth; actives 0.21% (n = 360,000); AID 651644; active = well fitted falling curve with a large enough effect; inconclusive = small, poorly fitted or top-dose-only effect; inactive = no such curve, though single readings can be large or run the other way;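 further: on the % scale 0 is the no-effect control and ±100 the full control effect; nearly all actives have a fitted effect of over 50% in size; the assay follows cell death caused by Vpr and the record does not say whether a fall means rescue or toxicity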
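Fission yeast strain RE007, carrying one chromosomally integrated HIV-1 vpr copy, was seeded at OD 0.01 in PMG+AL medium with 23 nL pinned compound. After 24 h at 30 °C and 99% humidity, viability was read by BacTiter-Glo luminescence.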
StopGo reporter – lowers the luciferase signal of an FMDV 2A StopGo reporter. actives 1.2% (n = 410,000). human cells with a luciferase reporter of 2A StopGo recoding; control for the full effect not named in the record. Potency, µM (series often up to 57.9 µM), inactives show at the highest dose signal change, negative = less light; active = well fitted falling curve with a large enough effect; inconclusive = small, poorly fitted or top-dose-only effect; inactive = no such curve, though single readings can be large or run the other way; tested in HEK293T cells; further: on the % scale 0 is the no-effect control and ±100 the full control effect; nearly all actives have a fitted effect of over 45% in size; luciferase light after 4 h
SARS PLpro yeast – inhibitors of SARS-CoV papain-like protease in yeast | S. cerevisiae expressing SARS-CoV PLpro, growth rescue; control for the full effect not named in the record | Potency, µM (highest dose often 32.9 µM), for inactives: at the top dose activity, positive = growth rescue | actives 0.19% (n = 330,000); active means well fitted rising curve with a large enough effect; inconclusive means small, poorly fitted or top-dose-only effect; inactive means no such curve, though single readings can be large or run the other way; further: 0% is about no effect; nearly all actives have a fitted effect of over 55% in size; growth read by luminescence after 48 h
The depositor's hits bear a star; u = inconclusive; x = no result given; [ ] = dose if it differs, or a comment. Potency means the concentration at half of the fitted maximal effect. A portion of the library; the hit share may differ from the screen's.

SMILES	RE007 growth inh	StopGo reporter	SARS PLpro yeast
Cc1ccc(/C=N/NC(=O)c2ccc3nc[nH]c3c2)s1	3%	21%	3%
Cc1ccc(NC(=O)CN2C(=O)NC(Cc3ccccc3)C2=O)cc1Cl (stereo not drawn)	8%	24%	-1%
c1ccc(C2(CN3CCNC[C@@H]3CC3CCCCC3)CC2)cc1	2%	-28%	0%
COc1ccc(-c2nnc(SCC(=O)N3CCCC3=O)n2N)cc1OC	-2%	3%	3%
CN(C(=O)c1ccc(NC(=O)Cc2cccc(NC(=O)C3CCN(C(=O)C4CCCC4)CC3)c2)cc1)C1CCCC1	-6%	-17%	0%
COCc1c(C(=O)Nc2nc(C)cs2)oc2ccccc12	-10%	21%	-5%
CN(C(=O)CSc1nncc2ccccc12)C1CCCCC1	-6%	31%[activator]	-3%
COc1ccc(N2C(=O)C3C4C=CC(C4)C3C2=O)c([N+](=O)[O-])c1 (stereo not drawn)	1%	-8%	5%
CCCc1cc(=O)[nH]c(SCC(=O)Nc2cc(S(=O)(=O)N3CCCCC3)ccc2C)n1	8%	-19%	2%
O=C(COc1ncnc2cc([N+](=O)[O-])ccc12)NC(=O)NC1CCCCC1	0%	-2%	0%
CNC(=O)c1ccc(NC(=O)CC2SC(N3CCCC3)=NC2=O)cc1 (stereo not drawn)	-5%	2%	0%
CSCCC1NC(=O)N(CC(=O)N2CCc3ccccc3C2)C1=O (stereo not drawn)	-5%	13%	0%
CCOC(=O)C1CCN(C(=O)COc2ccc(N(C)S(=O)(=O)c3ccc(OCC)cc3)cc2)CC1	2%	-9%	-2%
O=C(COc1ccc(Br)cc1)NCC1COc2ccccc2O1 (stereo not drawn)	-5%	-4%	-12%
Cc1ccc(NC(=O)Cn2nc(C)c(S(=O)(=O)N(C)C)c2C)cc1C	-2%	-30%	4%
COc1ccccc1CC(=O)Nc1ccc(S(=O)(=O)N2CC(C)CC(C)C2)cc1 (stereo not drawn)	8%	-12%	-2%
CCSc1nnc(NC(=O)CCCOc2ccc(C)cc2)s1	3%	-14%	0%
O=C(C[C@H]1C[C@H](C(=O)N2CCOCC2)[C@@]2(CCC3CCCC3)c3[nH]c4ccc(Cl)cc4c3CCN2C1=O)NCCCn1ccnc1	2%	-25%	-13%
CCCCNc1c(-c2cccc(-c3ccc(OC)cc3)c2)nc2ccc(C)cn12	u	28µM*	0%
COc1ccccc1S(=O)(=O)Nc1ccc2nc(C)sc2c1	-1%	18%	-5%
CSc1ncccc1C(=O)OCC(=O)NC1CCCCC1	-5%	44%[activator]	-10%
COc1ccc(CNc2ccc(C)c(C)c2)c(OC)c1OC	-19%	-1%	-14%
COCCCNC(=O)CC1C[C@H](C(=O)N2CCCCC2)[C@@]2(CCc3ccccc3)c3[nH]c4ccccc4c3CCN2C1=O (stereo partly drawn)	3%	11%	-6%
CCC1(c2ccc(C)cc2)NC(=O)N(CC(=O)Nc2cccc(S(=O)(=O)N3CCCC3)c2)C1=O (stereo not drawn)	11%	0%	0%
Cc1cc(NC(=O)CSc2ccc(F)cc2)no1	-2%	-12%	2%
O=C(Nc1nnc(-c2ccccc2F)s1)c1cccnc1	-18%	49%[activator]	0%
COc1ccc(CCNC(=O)CSCC(=O)Nc2cc(S(C)(=O)=O)ccc2Cl)cc1	-3%	-11%	-1%
O=C(CN1CCN(c2ccccc2)CC1)NC(=O)NCc1ccccc1	-12%	-17%	-1%
COc1cc2cc(C(C)(C)O)oc(=O)c2cc1OC	-4%	-10%	1%
C/C=C1\NC(=O)[C@@H](NC(=O)[C@H](CCc2ccc(O)cc2)NC(=O)[C@H](C)NC(=O)[C@H](O)CO)[C@@H](C)OC(=O)[C@H](C(C)C)NC(=O)[C@H](Cc2ccc(O)cc2)N(C)C(=O)[C@H](Cc2ccccc2)N2C(=O)C(CC[C@H]2O)NC1=O (stereo partly drawn)	4%	-5%	1%
Cc1ccc([C@H]2C(C(=O)O)=CC[C@@H](c3ccc(C)cc3)N2S(=O)(=O)c2ccc(C)cc2)cc1	7%	-16%	0%
CCN(CC(=O)NC1CCS(=O)(=O)C1)c1ccc([N+](=O)[O-])cc1C#N (stereo not drawn)	0%	u	0%
CC(C)CCNC(=O)c1onc(CSc2ccc(F)cc2)c1C(=O)NCCC(C)C	-4%	0%	1%
O=C(COC(=O)c1cc[n+]([O-])cc1)Nc1cccc(F)c1	-25%	9%	1%
CN(C)c1ccc(NC(=O)COC(=O)CNC(=O)c2cccs2)cc1	3%	8%	-2%
CCOC(=O)[C@@H]1[C@H]2COc3ccccc3[C@H]2N2C(=O)N(c3cccc(Cl)c3)C(=O)[C@]12C	2%	-11%	-19%
C[C@H](CO)N1C[C@H](C)[C@@H](CN(C)CC2CCCCC2)Oc2c(NC(=O)C3CC3)cccc2C1=O	2%	52%[activator]	4%
CN(C)C1=NC[C@H](Cc2ccccc2)N1CC1CCCC1	-30%	-20%	-2%
COc1ccccc1CNC(=O)CSc1ccc(-c2ccncc2)nn1	12%	-11%	-5%
CC(=O)Nc1ccc(S(=O)(=O)Nc2nc(C)nc3sc(C)c(C)c23)cc1	21%	6%	-5%
COc1ccc(NC(=O)c2cccc3c2C(=O)c2ccc(-c4ccc(F)cc4OCc4ccccc4)cc2S3(=O)=O)cc1	15%	-2%	-1%
CCN(CC)S(=O)(=O)c1ccc(N2CCOCC2)c(NC(=O)COc2ccc(OC)cc2)c1	7%	-7%	-19%
O=C1C=C(/C=C/C2C=CC=CC2)C[C@@H](c2ccc(Cl)cc2)C1 (stereo partly drawn)	-6%	0%	-1%
C=CC[C@@H](CC(=O)NCCO)C(=O)N[C@@H](C)COC(=O)[C@H](CC=C)CC(=O)OC(C)(C)C	6%	-24%	-2%
COC(=O)[C@]1(C)N[C@H](CN(C)S(=O)(=O)c2ccc(F)cc2)[C@@H]2C(=O)N(Cc3ccccc3)C(=O)[C@@H]21	2%	-18%	-3%
Cc1cc(C)cc(C(=O)OCC(=O)Nc2ncccn2)c1	-7%	-5%	-6%
O=C(Cc1ccc(S(=O)(=O)N2CCOCC2)s1)N1CCN(S(=O)(=O)c2ccc(Cl)cc2)CC1	-6%	u	-7%
CSc1ccccc1NC(=O)CN(C)C(C)C(=O)NCc1ccc2c(c1)OCO2 (stereo not drawn)	3%	-22%	-7%
CC(C)C(NC(=O)c1ccccc1)C(=O)N1CCN(C/C=C/c2ccccc2)CC1 (stereo not drawn)	-3%	-19%	-1%
Cc1ccc(S(=O)(=O)N2[C@@H](c3ccccc3)C(C(=O)O)=CC[C@H]2c2cccc(Cl)c2)cc1	2%	-1%	2%
COc1cc(CCCN2CCNC[C@@H]2CC2CCCCC2)cc(OC)c1OC	8%	-19%	-7%
CC(C)CC1Nc2ncnc(N3CCCCC3)c2N(Cc2ccccc2)C1=O (stereo not drawn)	32%	-10%	3%
O=C(O)COc1ccc(C(=O)c2ccccc2)cc1	9%	0%	2%
O=C(CN1C(=O)NC2(CCCC2)C1=O)N1CCN(S(=O)(=O)c2cc(Cl)ccc2Cl)CC1	3%	-1%	-3%
O=C1CC(c2ccccc2)CC(=O)N1c1ccc(C(F)(F)F)cc1	6%	-2%	-3%
COc1cc([N+](=O)[O-])cc2sc(NC(=O)c3c(F)cccc3F)nc12	5%	-2%	1%
CC(O)[C@H]1CNCCN1CCc1cccc2ccccc12 (stereo partly drawn)	14%	3%	0%
COc1ccc(/C=C(\C#N)C(=O)OCC(=O)NC(=O)NCCC(C)C)cc1	3%	19%	0%
O=C(c1ccc(Cl)c([N+](=O)[O-])c1)N1CCN(C(=O)c2ccco2)CC1	76%	-8%	0%
O=C(COC(=O)Cc1n[nH]c(=O)c2ccccc12)Nc1ccc(Cl)cn1	-4%	-14%	-4%
Additional compounds follow:
SMILES	RE007 growth inh	StopGo reporter	SARS PLpro yeast
CCN(C(=O)CSC1=Nc2ccccc2C2CC=NN12)C1CCS(=O)(=O)C1 (stereo not drawn)	6%	u	0%
CC(C)CCNC(=O)NC(=O)CSc1ccc(S(=O)(=O)N2CCOCC2)cn1	2%	10%	0%[6.58 µM]
Cc1ccc(S(=O)(=O)Nc2ncnc3sccc23)cc1C	1%	60%[activator]	-2%
COc1ccc2c(c1)OC[C@H]1[C@H]2N2C(=O)CN(CCc3c[nH]c4ccccc34)C(=O)[C@@]2(C)[C@H]1c1ccccc1	-7%	-17%	2%
COc1ccccc1CNC(=O)C(Cc1ccccc1)NC(=O)c1ccccc1 (stereo not drawn)	2%	-8%	0%
O=C(NCC(=O)N1CCCCCCC1)c1ccccc1Cl	-12%	23%	-2%
CCOc1cc2c(cc1OCC)CN(C(=O)c1cccc(S(=O)(=O)N3CCCC3)c1)CC2	2%	-22%	0%
CC(C)N(C(=O)[C@H]1C[C@H](CC(=O)NCCN2CCOCC2)C(=O)N2CCc3c([nH]c4cc(CCC(=O)N(C)C)ccc34)[C@]12C)C(C)C	1%	-15%	5%
COc1ccc(C(=O)N(C)Cc2cnn(Cc3ccccc3)c2)cc1S(=O)(=O)N1CCOCC1	18%	x	2%
COCCNC(=S)NCc1ccc2[nH]c3c(c2c1)CCCC3	14%	11%	-2%
COc1ccc(C2CC(=O)N(CC(=O)NCC3CCCO3)c3ccccc3S2)cc1OC (stereo not drawn)	5%	-9%	0%
O=C(COC(=O)c1cc(Cl)ccc1O)NCCC1=CCCCC1	1%	-28%	1%
CCOc1ccc(OCc2ccc(C(=O)N(CC)CC)cc2)cc1	-3%	-12%	-2%
CC(C)C[C@@]12C(=O)N(c3cccc(Cl)c3)C(=O)N1[C@H](c1ccc(F)cc1)[C@@H]1C(=O)N(C3CCCCC3)C(=O)[C@@H]12	4%	-27%	6%
O=C(COC(=O)C1CCN(c2ccc(C(F)(F)F)cn2)CC1)NCc1ccccc1	-3%	5%	1%
Cc1cccc(Nc2nnc(SCC(=O)c3c(N)n(C4CC4)c(=O)[nH]c3=O)s2)c1	6%	1%	-3%
CCOC(=O)c1ccc(S(=O)(=O)N2CCN(C(=O)C3CSC4(C)CCC(=O)N34)CC2)cc1 (stereo not drawn)	1%	-10%	-4%
Cc1ccc(C)c(OCCC(=O)Nc2ccc(S(=O)(=O)N3CCCC3)cc2)c1	-5%	-23%	7%
Cc1cc(C(=O)COC(=O)c2ccccc2O)c(C)n1CC1CCCO1 (stereo not drawn)	u	35µM*	11%
Cc1[nH]c2ccccc2c1C(=O)CSc1nnc(C2CC2)o1	7%	22%	4%
CC1(C)C(=O)NC(=O)N1Cc1ccccc1	0%	0%	2%
COC(=O)C1=C(c2ccc(F)cc2OCc2ccccc2)C[C@@H]2CC[C@H]1N2C(=O)NCc1ccc(C(F)(F)F)cc1	-3%	0%	0%
CC(C)(C)OC(=O)C[C@@H]1C/C=C\C[C@@H](CC(=O)N[C@H](CO)Cc2ccccc2)C(=O)NC[C@H](c2ccccc2)OC1=O	-2%	-22%	-3%
CC(CNC(=O)CN1C(=O)C(=O)N(C2CCCC2)C1=O)c1ccccc1 (stereo not drawn)	40%	-5%	-2%
COc1cc2c(cc1OC)CN(C(=O)CN1C(=O)NC3(CCC(C)CC3)C1=O)CC2 (stereo not drawn)	-25%	-20%	-1%
O=S(=O)(c1ccc(OCc2ccc(Br)cc2)cc1)N1CCOCC1	5%	-25%	2%
CCn1cc(-c2ccccc2)c(C(=O)O)c1-c1ccc(OC)cc1	-6%	-10%	-3%
C/C(CCc1ccccc1)=N\NC(=O)C1C2CCCCC21 (stereo not drawn)	-7%	5%	-3%
CCOC(=O)CSc1ccc2nnc(CCNS(=O)(=O)c3ccc(C)cc3)n2n1	3%	-7%	2%
C=CC[C@@H](CC(=O)N[C@@H](CO)Cc1ccccc1)C(=O)NCCOC(=O)[C@@H](CC=C)Cc1ccc(F)cc1	3%	-13%	1%
CC(OC(=O)Cc1c(F)cccc1Cl)C(=O)NC1CCCCC1C (stereo not drawn)	-2%	-4%	-1%
CCN(CC)S(=O)(=O)c1cc(NC(=S)NC(=O)C2CCCC2)ccc1C	10%	-28%	-2%
